# Screening results (PubChem BioAssay)
# NOMO-1 viab: STK33 inhibitor candidate reducing NOMO-1 cell viability; NOMO-1 AML viability, CellTiter-Glo luminescence, 72 h; inhibition, % (test concentration not listed); 37,000 tested, 7.5% active; AID 2330;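 active = most replicates above 80%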;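 note: wells of about 30 µL received 25 nL stock; 0% = median of vehicle wells and 100% = reference inhibitor level; the first replicate is given; inactives centre near 10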
# Numbers without * were called inactive. These rows are one share of the data. The share of hits here may be higher or lower than overall.
SMILES,NOMO-1 viab
Cc1noc(C)c1NC(=O)Nc1cccc2c1O[C@H](CN(C)Cc1ccc(-c3ccccc3)cc1)[C@@H](C)CN([C@@H](C)CO)C2=O,36
Cc1cc(C)c(C2=NON3N(C(=O)c4cccs4)c4ccccc4N23)c(C)c1,28
CC(C)NC(=O)Nc1ccc2c(c1)CC(=O)N([C@H](C)CO)C[C@H](C)[C@H](CN(C)C(=O)Nc1ccccc1)O2,-9
Cc1noc(C)c1S(=O)(=O)N(C)C[C@@H]1Oc2c(NC(=O)C3CC3)cccc2C(=O)N([C@H](C)CO)C[C@@H]1C,-6
Cc1cc(C)cc(Oc2c(C(F)(F)F)oc3cc(OCC(=O)O)ccc3c2=O)c1,-3
C[C@H]1CN([C@@H](C)CO)C(=O)c2cc(NC(=O)Cc3ccccc3)ccc2O[C@@H]1CN(C)CC1CC1,8
O=C(O)c1cccc(CSc2nnc(-c3ccco3)o2)c1,0
COC(=O)c1c(NC(=O)CN(c2cccc(Br)c2)S(C)(=O)=O)sc2c1CCCC2,31
COC(=O)c1ccc(NC(=O)CSc2nc(-c3cccs3)cc(=O)[nH]2)cc1,-17
COC(=O)c1cccc(COC(=O)c2ccccc2NC(=O)c2ccco2)c1,-18
Cc1ccc(S(=O)(=O)Nc2ccc3c(c2)C(=O)N([C@@H](C)CO)C[C@@H](C)[C@@H](CN(C)Cc2ccc(-c4ccccc4)cc2)O3)cc1,101*
C[C@H]1CN([C@@H](C)CO)C(=O)c2cc(NC(=O)Nc3ccc(F)cc3)ccc2O[C@H]1CN(C)S(=O)(=O)c1ccc(Cl)cc1,22
C[C@H]1CN([C@@H](C)CO)C(=O)Cc2cc(NC(=O)Cc3ccccc3)ccc2O[C@H]1CN(C)Cc1ccncc1,-6
Cc1noc(C)c1NC(=O)Nc1ccc2c(c1)CC(=O)N([C@@H](C)CO)C[C@@H](C)[C@@H](CN(C)Cc1ccncc1)O2,-3
Cc1ccc(-n2c(Cn3ncc4ccccc4c3=O)n[nH]c2=S)cc1,-3

# Two records picked at random from the list so far:
SMILES,NOMO-1 viab
O=C(O)c1cccc(CSc2nnc(-c3ccco3)o2)c1,0
COC(=O)c1c(NC(=O)CN(c2cccc(Br)c2)S(C)(=O)=O)sc2c1CCCC2,31

# Other results
SMILES,NOMO-1 viab
C[C@@H]1CCCCO[C@@H](CN(C)C(=O)NC2CCCCC2)[C@@H](C)CN([C@H](C)CO)C(=O)c2cc(NS(=O)(=O)c3cccs3)ccc2O1,11
COC(=O)c1ccccc1NC(=O)Cn1nc([N+](=O)[O-])c(Br)c1C,-2
CCOC(=O)C1CCN(C(c2cccc(Cl)c2)c2c(NC(C)=O)sc3c2CCCC3)CC1 (configuration not stated),109*
C[C@H]1CN([C@@H](C)CO)C(=O)Cc2cc(NC(=O)Nc3ccc(F)cc3)ccc2O[C@@H]1CN(C)C(=O)Nc1ccc(F)cc1,-2
C[C@@H]1CCCCO[C@H](CN(C)S(=O)(=O)c2cn(C)cn2)[C@@H](C)CN([C@H](C)CO)C(=O)c2cc(NC(=O)CCC(F)(F)F)ccc2O1,-17
C[C@@H]1CN([C@@H](C)CO)C(=O)c2cccc(NS(=O)(=O)c3cccs3)c2O[C@H]1CN(C)CC1CCCCC1,-9
Oc1ccccc1CNCc1ccccn1,115*
CC(C)NC(=O)Nc1ccc2c(c1)C(=O)N([C@@H](C)CO)C[C@@H](C)[C@H](CN(C)C(=O)NC1CCCCC1)O2,31
C[C@H]1CN([C@@H](C)CO)C(=O)c2cc(NS(=O)(=O)c3ccccc3)ccc2O[C@@H]1CN(C)S(=O)(=O)c1cn(C)cn1,10
C[C@H](CO)N1C[C@H](C)[C@@H](CN(C)Cc2ccc(C(=O)Nc3ccccc3N)cc2)Oc2c(NC(=O)c3nc4ccccc4s3)cccc2C1=O,110*
CNC[C@@H]1Oc2ccc(NC(=O)Nc3ccc4c(c3)OCO4)cc2CC(=O)N([C@H](C)CO)C[C@H]1C,-13
C[C@@H]1CN([C@@H](C)CO)C(=O)c2cccc(NS(=O)(=O)c3ccc(F)cc3)c2O[C@H]1CN(C)CC1CC1,-4
C[C@@H]1CN([C@H](C)CO)C(=O)c2cccc(NC(=O)c3ccncc3)c2O[C@@H]1CN(C)C(=O)Nc1cccc2ccccc12,13
CC1CC2OC(C)(C)OC2C(OC(=O)c2ccccc2)O1 (configuration not stated),8
CN(CCOC(=O)Nc1cccc(Cl)c1)c1ccc(C#N)cn1,4
CC(C)NC(=O)Nc1ccc2c(c1)CC(=O)N([C@H](C)CO)C[C@@H](C)[C@H](CN(C)Cc1ccncc1)O2,2
CC1OC(OCC2OC(Oc3cc(O)c4c(=O)c(-c5ccc(O)cc5)coc4c3)C(O)C(O)C2O)C(O)C(O)C1OC1OC(CO)C(O)C(O)C1O (configuration not stated),3
C[C@@H]1CCCCO[C@H](CN(C)C)[C@@H](C)CN([C@H](C)CO)C(=O)c2cc(NC(=O)c3ccccc3)ccc2O1,9
C[C@@H]1CN([C@H](C)CO)C(=O)c2cc(NS(=O)(=O)c3ccccc3)ccc2O[C@@H]1CN(C)Cc1ccncc1,-10
COc1cccc(-c2c(C(N)=O)nnc3cc(-c4ccccc4)nn23)c1,5
CC(C)NC(=O)Nc1ccc2c(c1)CC(=O)N([C@@H](C)CO)C[C@H](C)[C@H](CN(C)C(=O)Nc1ccccc1)O2,5
CC(C)C1=CCC(C)/C(=C\c2ccc(Cl)cc2)C1=O (configuration not stated),4
C[C@@H]1CN([C@H](C)CO)C(=O)Cc2cc(NC(=O)Cc3cn(C)c4ccccc34)ccc2O[C@@H]1CN(C)CC1CC1,-3
C[C@H](CO)N1C[C@H](C)[C@H](CN(C)S(=O)(=O)c2ccc(Cl)cc2)Oc2ccc(NC(=O)Cc3cn(C)c4ccccc34)cc2C1=O,40
C[C@@H]1CN([C@@H](C)CO)C(=O)c2cccc(NC(=O)c3cnccn3)c2O[C@H]1CN(C)S(=O)(=O)c1ccc(F)cc1,-12
C[C@@H]1CN([C@@H](C)CO)C(=O)c2cccc(NS(=O)(=O)c3cn(C)cn3)c2O[C@@H]1CN(C)CC1CCCCC1,0
Cc1noc(C)c1NC(=O)Nc1cccc2c1O[C@@H](CN(C)CC1CCCCC1)[C@H](C)CN([C@H](C)CO)C2=O,41
COc1ccc(C(=O)Nc2ccc(C(=O)OCc3cccc([N+](=O)[O-])c3)cc2)cc1,31
C[C@H]1CN([C@@H](C)CO)C(=O)c2cccc(NC(=O)Nc3cccc4ccccc34)c2O[C@H]1CN(C)S(=O)(=O)c1ccccc1,32
C[C@@H]1CN([C@@H](C)CO)C(=O)c2cccc(NC(=O)c3cnccn3)c2O[C@@H]1CN(C)C(=O)NC1CCCCC1,-10
C[C@H](CO)N1C[C@H](C)[C@@H](CN(C)Cc2ccc(-c3ccccc3)cc2)Oc2c(NC(=O)C3CCOCC3)cccc2C1=O,34
C[C@H]1CN([C@@H](C)CO)C(=O)Cc2cc(NC(=O)Cc3ccccc3)ccc2O[C@H]1CN(C)S(=O)(=O)c1ccc(F)cc1,18
COc1ccc(CN(C)C[C@@H]2Oc3c(NC(=O)Nc4ccc5c(c4)OCO5)cccc3C(=O)N([C@@H](C)CO)C[C@H]2C)cc1,87*
COc1ccc(S(=O)(=O)Nc2ccc3c(c2)CC(=O)N([C@H](C)CO)C[C@@H](C)[C@@H](CN(C)C)O3)cc1,5
COC(=O)c1ccccc1NC(=O)COc1ccc2c(C)cc(=O)oc2c1,31
Cc1noc(C)c1NC(=O)Nc1ccc2c(c1)C(=O)N([C@@H](C)CO)C[C@H](C)[C@H](CN(C)S(=O)(=O)c1ccc(F)cc1)O2,1
CCCN(C)C[C@@H]1OCCCC[C@@H](C)Oc2ccc(NC(=O)CCCN(C)C)cc2C(=O)N([C@H](C)CO)C[C@@H]1C,13
C[C@H]1CN([C@@H](C)CO)C(=O)c2cc(NC(=O)Cc3ccccc3)ccc2O[C@@H]1CN(C)C,8
COc1ccc(NC(=O)c2ccccc2NC(=O)COc2ccc([N+](=O)[O-])cc2)cc1,-16
C[C@H](CO)N1C[C@H](C)[C@H](CN(C)Cc2ccc(Oc3ccccc3)cc2)Oc2c(NS(=O)(=O)c3ccccc3)cccc2C1=O,48
C[C@@H]1CN([C@@H](C)CO)C(=O)c2cccc(NC(=O)c3ccc(-c4nccs4)cc3)c2O[C@@H]1CN(C)C,23
c1ccc(C(c2ccccc2)N2CCN(CCCc3c[nH]c4ccccc34)CC2)cc1,116*
C[C@H]1CN([C@@H](C)CO)C(=O)c2cccc(NC(=O)Nc3ccccc3)c2O[C@@H]1CN(C)C(=O)NC1CCCCC1,-4
O=C(NCCN1CCCCC1)Nc1cccc(Cl)c1,6
Cc1ccc(C(=O)O)cc1S(=O)(=O)N(CCO)CCO,6

# Sorted by number of heavy atoms (lowest first): some entries from above.
SMILES,NOMO-1 viab
COc1ccc(NC(=O)c2ccccc2NC(=O)COc2ccc([N+](=O)[O-])cc2)cc1,-16
C[C@H]1CN([C@@H](C)CO)C(=O)c2cccc(NC(=O)Nc3ccccc3)c2O[C@@H]1CN(C)C(=O)NC1CCCCC1,-4
Cc1noc(C)c1NC(=O)Nc1ccc2c(c1)C(=O)N([C@@H](C)CO)C[C@H](C)[C@H](CN(C)S(=O)(=O)c1ccc(F)cc1)O2,1

# A run of entries from further up, as a working copy:
SMILES,NOMO-1 viab
c1ccc(C(c2ccccc2)N2CCN(CCCc3c[nH]c4ccccc34)CC2)cc1,116*
C[C@H]1CN([C@@H](C)CO)C(=O)c2cccc(NC(=O)Nc3ccccc3)c2O[C@@H]1CN(C)C(=O)NC1CCCCC1,-4
O=C(NCCN1CCCCC1)Nc1cccc(Cl)c1,6
Cc1ccc(C(=O)O)cc1S(=O)(=O)N(CCO)CCO,6

# Carrying on:
SMILES,NOMO-1 viab
COc1ccc(N(CC(=O)Nc2cccnc2)S(C)(=O)=O)c(OC)c1,13
Cc1cc(OCC(=O)Nc2cccc(NC(=O)c3cccc(Cl)c3)c2)ccc1Cl,71
C[C@H]1CN([C@@H](C)CO)C(=O)c2cccc(NS(C)(=O)=O)c2O[C@H]1CN(C)Cc1ccc(C(F)(F)F)cc1,19
C[C@@H]1CN([C@@H](C)CO)C(=O)c2cc(NC(=O)Cn3cnnn3)ccc2O[C@@H]1CN(C)S(C)(=O)=O,20
CC(=O)OC(COc1cccc2ccccc12)Cn1cnc2ccccc21 (configuration not stated),59
CCC(=O)N1CCNC(=O)C1CC(=O)Nc1ccc(C)c(Cl)c1 (configuration not stated),-12
C[C@H]1CN([C@@H](C)CO)C(=O)Cc2cc(N(C)C)ccc2O[C@@H]1CN(C)S(C)(=O)=O,32
COc1ccc(-c2nc3cc(C(C)C)ccc3o2)cc1NC(=O)COc1ccccc1C,106*
C[C@@H]1CN([C@@H](C)CO)C(=O)c2cc(NC(=O)NC3CCCCC3)ccc2O[C@H]1CN(C)S(=O)(=O)c1ccc(Cl)cc1,14
C[C@@H]1CN([C@H](C)CO)C(=O)c2cccc(NC(=O)C3CCOCC3)c2O[C@H]1CN(C)C(=O)NC1CCCCC1,13
COC(=O)c1cc(OC)c(OC)cc1NC(=O)COc1ccc(Cl)cc1,15
CC(C)NC(=O)Nc1ccc2c(c1)CC(=O)N([C@H](C)CO)C[C@@H](C)[C@H](CN(C)C(=O)Nc1ccc3c(c1)OCO3)O2,5
C[C@@H]1CN([C@@H](C)CO)C(=O)Cc2cc(NC(=O)Nc3cccc4ccccc34)ccc2O[C@@H]1CN(C)C(=O)Nc1ccc(F)cc1,28
Cc1cc(Cl)ccc1NC(=O)CSc1nnc(-c2cccs2)n1-c1ccccc1,50
Cc1c(C(=O)Nc2sc3c(c2C(=O)NC2CCS(=O)(=O)C2)CCC(C)C3)oc2ccc(Cl)cc12 (configuration not stated),3
C[C@H](CO)N1C[C@H](C)[C@H](CN(C)Cc2ccc(Cl)c(Cl)c2)Oc2ccc(NC(=O)Nc3ccc(C(F)(F)F)cc3)cc2C1=O,125*
O=C(COc1ccc(C(=O)Nc2ccc(F)cc2)cc1)Nc1ccccc1C(F)(F)F,-16
CCOC(=O)c1cnn(C(=O)Cc2cccc(OC)c2)c1N,23
Nc1nc(CSc2nnc3c(n2)[nH]c2ccccc23)cs1,-11
COc1ccc(OCC(=O)Nc2ccccc2C(=O)Nc2ccc(C(=O)O)cc2)cc1,9
C[C@H](CO)N1C[C@H](C)[C@@H](CN(C)S(=O)(=O)c2cn(C)cn2)Oc2ccc(NC(=O)Nc3ccccc3)cc2C1=O,32
COc1cccc(CNc2nc3ccccc3n2C)c1OC,6
Cc1ccc2oc(C(=O)Nc3sc4c(c3C(=O)NCc3ccco3)CCC4)c(C)c2c1,120*
CC(Oc1ccccc1)C(=O)N[C@@H]1C(=O)N2[C@@H]1SC(C)(C)[C@@H]2C(=O)O (some centres not stated),5
Cc1noc(C)c1NC(=O)N(C)C[C@@H]1OCCCC[C@@H](C)Oc2ccc(NC(=O)CCC(F)(F)F)cc2C(=O)N([C@H](C)CO)C[C@@H]1C,20
O=C(Cn1cnc2sc3c(c2c1=O)CCCC3)Nc1ccccc1Br,1
COC(C(=O)Nc1ccccc1C(=O)N1CCOCC1)c1ccccc1 (configuration not stated),16
CC(C)NC(=O)N(C)C[C@@H]1Oc2ccc(NS(C)(=O)=O)cc2CC(=O)N([C@H](C)CO)C[C@@H]1C,4
C[C@@H]1CN([C@@H](C)CO)C(=O)Cc2cc(NS(=O)(=O)c3ccc(Cl)cc3)ccc2O[C@@H]1CN(C)CC1CCCCC1,102*
